Bioassay records as filed in PubChem BioAssay.
D2 potentiator: Beta-Arrestin HTS for Positive Allosteric Modulators of the Human D2 Dopamine Receptor: Potentiators | AID 624464, 2012 | DiscoveRx D2 beta-arrestin cells, luminescence, 90 min; 100% = 57 uM dopamine signal | potentiation, % (concentration not given with the values) | hit rate 0.23% among 360,000; active = potentiation of 50% or more; inconclusive = 30% to 50%; inactive = 30% or less;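 further: compound concentration not given in the record; tested on top of an EC20 dose of dopamine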
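PathHunter D2 cells, attached overnight at 37 deg C, received compound in DMSO plus dopamine at EC20 (50 nM final) for 90 min at 37 deg C. Beta-arrestin recruitment was read as luminescence after 1 h with detection reagent at ambient temperature.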
gsp agonist: qHTS for Agonist of gsp, the Etiologic Mutation Responsible for Fibrous Dysplasia/McCune-Albright Syndrome: qHTS; gsp mutant cells, cAMP HTRF, 30 min; control for the full effect not named in the record; Potency, µM (top dose mostly 76.9 µM), for inactives: top-dose activation (cAMP increase), actives largely listed as activators; hit rate 0.13% among 340,000; AID 624287, 2012; active = well fitted activation curve with a large enough effect; inconclusive = small, poorly fitted or top-dose-only effect, or another doubt; inactive = no such curve, though single readings can be large or run the other way; cell line not stated here;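 further: phosphodiesterase inhibitor Ro 20-1724 added with compounds to block cAMP breakdown; potency means the concentration at half of the fitted maximal effect; nearly all actives have a fitted effect of over 60% in size; about a fifth of the inactives were tested at one dose only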
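Cells stably selected in G418 were plated at 2000/well, grown 16-24 hr, then given compounds in DMSO with the PDE inhibitor […] (300 uM solution added) for 30 min at 37C; cAMP was read by HTRF.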
D2 ag: Beta-Arrestin HTS for Positive Allosteric Modulators of the Human D2 Dopamine Receptor: Agonists; DiscoveRx PathHunter D2 beta-arrestin, luminescence, 90 min; 100% = 57 uM dopamine signal; activation, % (concentration not given with the values); hit rate 0.084% among 360,000; AID 624465, 2012; in the data active = activation above about 40%; inconclusive = about 15% to 40%; inactive = below about 15%; further: compound concentration not given in the record; the text of the record calls up to 30% inactive
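Agonist mode: compounds alone added to overnight-plated D2 PathHunter cells for 90 min at 37 C, with 57 uM final dopamine (EC100) defining full response. Beta-arrestin recruitment detected by chemiluminescent reagent, read after 1 h at ambient temperature.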
gsp antag: qHTS for Antagonists of gsp, the Etiologic Mutation Responsible for Fibrous Dysplasia/McCune-Albright Syndrome: qHTS | gsp-mutant cells, cAMP HTRF, 30 min; control for the full effect not named in the record | Potency, µM (doses to about 76.9 µM), for inactives: top-dose activity change, negative = inhibition, actives largely listed as inhibitors | hit rate 0.4% among 340,000 | AID 624288, 2012; active = falling curve of any shape with a large fitted effect; inconclusive = falling curve, mostly with a smaller effect; inactive = flat or rising curve; cell line not stated here;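 further: intracellular cAMP measured with PDE inhibitor Ro 20-1724 present during compound exposure; potency means the concentration at half of the fitted maximal effect; on the % scale 0 is the no-effect control and ±100 the full control effect; nearly all actives have a fitted effect of over 65% in size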
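HTRF cAMP measurement after 30 min RT detection following 30 min, 37C compound treatment alongside […] (added as 300 uM solution) in G418-selected cells seeded at 2000/well and grown 16–24 h.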
Six1-Eya2 blk: qHTS Assay for Inhibitors of the Six1/Eya2 Interaction | Homeobox protein SIX1 (Homo sapiens) + Protein phosphatase EYA2 (Homo sapiens), … | AlphaScreen GST-Six1/His-Eya2 binding, biochemical; active compounds read low; control for the full effect not named in the record | activity change, % (test concentration not listed) | hit rate 0.56% among 360,000 | AID 651725, 2012; in the data active = activity change below about -65%; inconclusive = about -30% to -65%; inactive = above about -30%; further: on the % scale 0 is the no-effect control and ±100 the full control effect
Target sequence (O00167 whole entry, looked up): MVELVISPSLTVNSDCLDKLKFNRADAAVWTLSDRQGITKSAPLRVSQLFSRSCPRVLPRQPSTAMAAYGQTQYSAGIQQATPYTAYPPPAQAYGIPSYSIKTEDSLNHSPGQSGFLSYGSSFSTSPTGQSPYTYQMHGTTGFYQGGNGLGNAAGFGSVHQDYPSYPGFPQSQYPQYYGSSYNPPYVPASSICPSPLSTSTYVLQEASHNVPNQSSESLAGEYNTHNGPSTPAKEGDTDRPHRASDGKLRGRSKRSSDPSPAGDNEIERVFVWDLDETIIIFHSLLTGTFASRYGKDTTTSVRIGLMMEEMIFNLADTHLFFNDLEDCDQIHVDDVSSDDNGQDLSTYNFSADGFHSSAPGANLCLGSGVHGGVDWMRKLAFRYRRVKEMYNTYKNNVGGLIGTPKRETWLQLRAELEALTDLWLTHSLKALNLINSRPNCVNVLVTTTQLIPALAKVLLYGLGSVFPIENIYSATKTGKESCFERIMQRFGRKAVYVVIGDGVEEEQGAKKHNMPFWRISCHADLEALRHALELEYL
Target sequence (Q15475 whole entry, looked up): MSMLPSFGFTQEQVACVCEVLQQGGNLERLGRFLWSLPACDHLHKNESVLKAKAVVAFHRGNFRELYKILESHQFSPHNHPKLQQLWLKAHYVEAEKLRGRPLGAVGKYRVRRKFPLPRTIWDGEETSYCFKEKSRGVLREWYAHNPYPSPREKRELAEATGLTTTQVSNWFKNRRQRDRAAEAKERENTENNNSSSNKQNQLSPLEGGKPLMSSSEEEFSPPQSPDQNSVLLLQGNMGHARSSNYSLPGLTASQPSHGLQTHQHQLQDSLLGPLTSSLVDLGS
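Six1/Eya2 binding was read as AlphaScreen signal after compounds were pinned into GST-Six1 plus His-tagged Eya2 (5X stock 250/500 nM) in pH 8.0 Tris/NaCl/TCEP buffer, beads added, then incubated 1 h, 37 C, dark.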
CtBP-E1A blk: qHTS Assay for Inhibitors of the CtBP/E1A Interaction; AlphaScreen GST-E1A/His-CtBP binding, 1536-well; active compounds read low; control for the full effect not named in the record; activity change, % (test concentration not listed); hit rate 0.49% among 340,000; in the data active means activity change below about -65%; inconclusive means about -30% to -65%; inactive means above about -30%; further: on the % scale 0 is the no-effect control and ±100 the full control effect
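Homogeneous bead-based format: GST-tagged E1A captured on glutathione donor beads, His-tagged CtBP on nickel acceptor beads; compounds precede bead addition by 2 h at 37 °C.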
The depositor's hits bear a star; u = inconclusive; x = no result given; & = joins results of further samples; [ ] = remark or other dose. Hits appear at their usual frequency; overall some 1.4% were active at least once.

SMILES	D2 potentiator	gsp agonist	D2 ag	gsp antag	Six1-Eya2 blk	CtBP-E1A blk
CN1CCN(C(=O)c2ccccc2[N+](=O)[O-])CC1	-6	22%[15.4 µM]	7.2	11%	-1	-4
O=C(Cc1c(Cl)cccc1Cl)OCC(=O)N1CCc2ccccc2C1	-6	-5%	-0.5	1%	16	-14
Clc1ccc(Nc2nc3ccccc3n3nnnc23)cc1	4	-31%[inhibitor]	3.0	-6%	7	4
O=C1CCN(C(=S)NCCc2ccccc2)CC1	-10	9%[15.4 µM]	-3.2	-6%	7	-2
COc1ccc(-c2ccc(=O)n(Cc3cc(=O)n4ccccc4n3)n2)cc1	-5	u	-4.5	18%	0	10
CC(=O)C1=CCC(c2ccccc2)N(S(=O)(=O)c2ccccc2C)C1 (configuration not stated)	-2&-5	x	-4.2&-4.1	x	7&4	0&6
CC(=O)Nc1ccc(NS(=O)(=O)c2cc(Cl)sc2Cl)cc1	-4	10%	-5.5	-11%	0	-13
CCCCCc1nnc(NC(=O)C2CCCO2)s1 (configuration not stated)	7	15%	6.0	6%	5	11
O=C1OC(N2CCN(c3ccccn3)CC2)c2ccccc21 (configuration not stated)	-6	3%	8.6	20%	6	3
Cn1nc(C(=O)N2CCC(C(N)=O)CC2)c2c1-c1ccccc1SC2	-11	-5%	-6.9	2%	-1	4
CCCCCCCCn1c2c(c(=N)c3c1CCC3)CCCC2	-16	7%	-3.2	-9%	11	-3
Cc1cccc(NC(=O)CN2CCN(C(=O)c3cnn(Cc4ccccc4)c3)CC2)c1C	2	13%[15.4 µM]	2.3	5%	10	-7

The list goes on; it opens with the 2 that closed the last part.
SMILES	D2 potentiator	gsp agonist	D2 ag	gsp antag	Six1-Eya2 blk	CtBP-E1A blk
CCCCCCCCn1c2c(c(=N)c3c1CCC3)CCCC2	-16	7%	-3.2	-9%	11	-3
Cc1cccc(NC(=O)CN2CCN(C(=O)c3cnn(Cc4ccccc4)c3)CC2)c1C	2	13%[15.4 µM]	2.3	5%	10	-7
Cc1csc(=Nc2ccccc2)n1C	-2	2%	0.7	1%	6	3
COc1cccc(CCC(=O)N2CCC(n3nccc3NC(=O)C3CCOC3)CC2)c1 (configuration not stated)	-2	4%[15.4 µM]	-4.7	10%	10	-1
CC(=O)c1sc(NC(=O)c2ccc(C(C)(C)C)cc2)nc1C	-6	-13%	-3.5	3%	4	2
COc1ccc(-n2c(C)cc(/C=N/Nc3nnc(C)n3N)c2C)cc1	u	-42%[inhibitor]	u	10%	-4	-13
C=C(C)Cn1c(N2CCN(CC)CC2)nc2c1c(=O)[nH]c(=O)n2C	-11	-36%[inhibitor]	-6.7	6%	5	0
COc1cccc(CN2CCN(C(=O)c3cccs3)CC2)c1OC	-4	-10%	u	0%	-23	4
COC(=O)c1ccsc1NC(=O)CCS(=O)(=O)c1ccc(Cl)cc1	-12	9%	-4.1	4%	-4	9
COC(=O)c1ccc(/C=C/c2nc3ccccc3c(=O)[nH]2)cc1	-7	13%	-5.7	8%	15	-1
CN(C)N(C)C(=O)C(O)(c1ccccc1)c1ccccc1	5	-2%	-0.3	11%	0	18
Cc1ccc(-c2nnn(CC(=O)N(CC(=O)NC3CCCCC3)c3ccc(F)c(Cl)c3)n2)o1	2	2%	1.2	5%	6	0
Cc1ccc(C)c(Cn2c3ccccc3c3cnn(CC(=O)NCCCN4CCOCC4)c(=O)c32)c1	-15	u	-2.6	13%	-5	-12
Cc1cc(C)cc(C(N)=Nc2cccc(C#N)c2)c1	-4	-27%	-2.3	6%	5	9

The final 3 compounds of the part above lead into the next:
SMILES	D2 potentiator	gsp agonist	D2 ag	gsp antag	Six1-Eya2 blk	CtBP-E1A blk
Cc1ccc(-c2nnn(CC(=O)N(CC(=O)NC3CCCCC3)c3ccc(F)c(Cl)c3)n2)o1	2	2%	1.2	5%	6	0
Cc1ccc(C)c(Cn2c3ccccc3c3cnn(CC(=O)NCCCN4CCOCC4)c(=O)c32)c1	-15	u	-2.6	13%	-5	-12
Cc1cc(C)cc(C(N)=Nc2cccc(C#N)c2)c1	-4	-27%	-2.3	6%	5	9
Cc1n[nH]c(C)c1S(=O)(=O)N1CCCC(C(=O)O)C1 (configuration not stated)	-4	-6%	0.2	1%	4	x
Cc1ccccc1OS(=O)(=O)c1cn(C)c(=O)n(C)c1=O	-13	2%[15.4 µM]	-2.4	6%	2	5
CCN(CC)C(=O)c1sc(NC(=O)c2ccc(Br)o2)c(C(=O)OC)c1C	-5	20%	-0.4	-14%	2	-2
COc1ccc(C(=O)C/C(=C\C(=O)c2ccc(C)cc2)c2ccccc2)cc1	-15	u	-2.0	4%	-7	6
CSc1cc(-c2ccncc2)nc(-c2ccc(Cl)cc2)c1	-5	-9%[15.4 µM]	-1.3	-14%	5	5
OC(c1ccc(F)cc1)C(CN1CCOCC1)c1ccccc1 (configuration not stated)	1	5%	-1.2	5%	-8	4
CCCCn1c(CCCNC(=O)c2ccco2)nc2ccccc21	-19	-19%	-1.4	-5%	1	6
CN(Cc1ccccc1)C(=S)NC(=O)c1ccc(-c2ccccc2)cc1	-8	0%[15.4 µM]	-4.5	-8%	1	0
Cc1ccc(S(=O)(=O)N2CC(C(=O)O)=CC[C@H]2c2ccc(Cl)cc2)cc1	-4	u	-3.9	u	3	0
CCCCOC(=O)c1cc(=O)[nH]c2ccc(C)cc12	-2	-53%[inhibitor]	1.4	5%	-3	-5
O=C(C1=C[C@@H](c2ccc(Br)cc2)C[C@@H](OCCCCO)O1)N1CCN(Cc2ccc3c(c2)OCO3)CC1	0	3%	0.3	u	-10	-5
CCC1CCCN1Cn1cnc2c([nH]c3ccc(OC)cc32)c1=O (configuration not stated)	-21	-29%	1.7	7%	-7	3

Complete entries, looked up by structure. Values in the order: D2 potentiator | gsp agonist | D2 ag | gsp antag | Six1-Eya2 blk | CtBP-E1A blk
Record of CCC1CCCN1Cn1cnc2c([nH]c3ccc(OC)cc32)c1=O (configuration not stated) : -21 | -29% | 1.7 | 7% | -7 | 3
Record of O=C(C1=C[C@@H](c2ccc(Br)cc2)C[C@@H](OCCCCO)O1)N1CCN(Cc2ccc3c(c2)OCO3)CC1 : 0 | 3% | 0.3 | u | -10 | -5
Record of CSc1cc(-c2ccncc2)nc(-c2ccc(Cl)cc2)c1 : -5 | -9%[15.4 µM] | -1.3 | -14% | 5 | 5
Record of Cc1ccc(S(=O)(=O)N2CC(C(=O)O)=CC[C@H]2c2ccc(Cl)cc2)cc1 : -4 | u | -3.9 | u | 3 | 0
Record of COc1ccc(C(=O)C/C(=C\C(=O)c2ccc(C)cc2)c2ccccc2)cc1 : -15 | u | -2.0 | 4% | -7 | 6

Additional entries
SMILES	D2 potentiator	gsp agonist	D2 ag	gsp antag	Six1-Eya2 blk	CtBP-E1A blk
Cc1cccc(CC2S/C(=N/N=C/c3ccco3)NC2=O)c1 (configuration not stated)	-4	2%[15.4 µM]	-2.0	0%	-7	0
CC(=O)c1ccc(NC(=O)CCc2ccc(C)o2)cc1	-6	-4%	-1.6	-2%	-10	-16
C[C@@H]1CN([C@@H](C)CO)C(=O)c2c(c3ccccc3n2C)-c2ccccc2CO[C@H]1CN(C)S(=O)(=O)c1ccc(C(F)(F)F)cc1	-2	3%	-4.9	x	2	-22
C=CCSc1nsc(NC(=O)Nc2ccc(F)cc2)n1	-1	-19%	6.9	-35%	-2	-18
NC(=O)C1CCCCc2c1[nH]c1ccc(Cl)cc21 (configuration not stated)	-3	u	10.0	5%	5	4
CN(Cc1cnn(C)c1)C(=O)c1sc2cccc(Cl)c2c1Cl	-4	14%	-3.4	u	4	3
CN1CCN(c2oc(-c3ccccc3Cl)nc2S(=O)(=O)c2ccccc2)CC1	-50	2%[15.4 µM]	-4.0	-3%	-15	-22
CCCCc1ccc(NC(=O)C2CCCO2)cc1 (configuration not stated)	20	-17%	1.5	2%	3	9
COc1ccc(CNC(=O)C23CC4CC(CC(Br)(C4)C2)C3)cc1	-3	27%	0.6	-2%	4	17
Cc1cc(C(=O)CN2C(=O)NC(Cc3c[nH]c4ccccc34)C2=O)c(C)n1C (configuration not stated)	1	26%	-1.3	-3%	-9	-2
CC1(C(=O)O)CCC(C(=O)NNC(=O)c2ccccc2O)C1(C)C (configuration not stated)	2	-1%	9.2	0%	11	5
CCOC(=O)c1ccc(-c2c(-c3ccccc3OC)sc3cc4c(cc23)OCO4)cc1F	-10	-40%[inhibitor]	-5.1	3%	9	-19
O=C(NC1CCCC1)C(c1ccc(F)cc1)N(C(=O)c1csnn1)C1CC1 (configuration not stated)	-7	9%[15.4 µM]	-4.7	1%	2	17
CN(C)C(=O)CSc1ncnc2scc(-c3ccccc3)c12	-18	19%[15.4 µM]	5.5	x	-2	2
Cc1ccc(C(=O)OCC(=O)Nc2ccc(Cl)cn2)cc1S(=O)(=O)N1CCOCC1	-3	-33%[inhibitor]	-2.1	0%	-12	3
O=C(NCc1ccccc1)C(c1ccc(F)cc1)N(Cc1ccco1)C(=O)c1ccccn1 (configuration not stated)	-6	-6%	-4.7	-13%	5	25
CCN(CC)c1nc(C)c2c(c1C#N)CC(C)(C)OC2	-5	9%	0.2	-2%	7	7
CCCOC(=O)CSc1nnc(-c2ccccc2Cl)o1	-14	8%	0.6	-7%	17	-1
O=C(COC(=O)CNS(=O)(=O)c1ccc(Cl)cc1)NC1CCCCC1	0	-7%[15.4 µM]	2.0	-9%	-1	-8
CC(C)(C)c1ccc(C(=O)NCC(=O)N2CCNC(=O)C2)cc1	-2	6%	-3.9	-4%	3	-6
Cc1nonc1OCCNC(=O)C12CC3CC(CC(C3)C1)C2	-4	-32%[inhibitor]	-0.9	5%	-5	-6
COC(=O)C1=C(C(=O)OC)SC2(S1)C(C(=O)OC)=C(C(=O)OC)SC1=C2c2cc(C)ccc2NC1(C)C	-5	-42%[inhibitor]	-6.7	u	6	-10
CC=CCn1c(SCc2ccccc2)nc2c1c(=O)[nH]c(=O)n2C	0	x	-3.6	x	-2	0
Cc1cc(OC(=O)c2ccc(C)c(C)c2)c([N+](=O)[O-])c(=O)[nH]1	-3	-14%	-0.2	5%	5	x
